RN4220 kill = S. aureus RN4220 growth inhibition. AID 1259311. actives 0.33% (n = 330,000). OD600, 16 h. inhibition, % (test concentration not listed);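 active = z-score of -3 or lower and OD600 up to 0.18 on both plates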;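 also: plate controls were untreated cells for no effect and reference antibiotic for full effect; stock transfer was 100 nL into about 80 µL; one replicate is shown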
BJeLR viability = BJeLR cell viability loss; inhibition, % (concentration not given with the values); BJeLR (HRASV12) viability, CellTiter-Glo ATP luminescence, 48 h; reference of the scale not given here; actives 0.17% (n = 300,000);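 active = replicate mean above 50%; inconclusive = above 50% but judged a plate artefact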;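 also: 50 nL library stock added to about 25 µL; numbers are from one replicate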
Bead autofluor = counter-screen for toxin protease inhibitors: compound fluorescence; actives 3.1% (n = 360,000); AID 624483; fluorescence intensity (no concentration beside the values); compound autofluorescence counterscreen, microsphere flow cytometry; active compounds read high;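 active = at least 3 SD above the mean of all compounds, about 16000 in these data; inconclusive = too few beads counted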;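 also: 100 nL of 1 mM stock went into each well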
PrP 5UTR inh = suppresses PrP 5' UTR mRNA reporter expression. cell-based PrP 5' UTR mRNA reporter, plate reader. AID 488862. inhibition, % (test concentration not listed). actives 0.35% (n = 340,000);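 active = every replicate at 50% or more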;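 also: 0 = median of the neutral control wells; tested in H4 reporter cells; numbers are from one replicate; inactives centre near -14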
Mtb hypoxia rep = Mtb hypoxia fluorescent reporter inhibition; M. tuberculosis hypoxia-regulated fluorescent reporter, fluorescence; fluorescence inhibition, % (test concentration not listed); actives 0.1% (n = 300,000); AID 1159583;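 active = 35 to 45% if threefold the growth effect, above 45% if 1.5-fold the growth effect; inactive = the rest, general growth blockers included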;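 also: wells of about 50 µL received 100 nL stock; 0% = vehicle wells and 100% = reference inhibitor wells; whole bacteria with a GFP reporter of the hypoxia response; strong numbers were not always called active; many hits fall short of the cut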
ugtP null kill = compounds lethal to S. aureus RN4220 ugtP deletion mutant | OD600 growth, 16 h; some inactives read as strong as hits | growth inhibition, % (no concentration beside the values) | actives 0.54% (n = 330,000);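 active = z-score under -3 and OD600 up to 0.15 on both plates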;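 also: plate controls were untreated wells for no effect and antibiotic for full effect; wells of about 80 µL received 100 nL stock; the first replicate is given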
Mtb hypoxia rep growth = second read-out of Mtb hypoxia rep, no call of its own (marks repeat the call); growth inhibition, %; measured here: M. tuberculosis growth (absorbance);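 0% = vehicle and 100% = reference antibiotic; read after six days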
Active calls of the source: *; ? = inconclusive; nt = no result given.

SMILES	RN4220 kill	BJeLR viability	Bead autofluor	PrP 5UTR inh	Mtb hypoxia rep	Mtb hypoxia rep growth	ugtP null kill
CCOC(=O)C1CCN(C(=O)CNS(=O)(=O)c2cccs2)CC1	1.0	3	6348	-22	7	3	12
O=C(COC(=O)c1cnccn1)c1ccc2c(c1)CCCC2	8.8	-7	20610*	-12	6	8	-3
COc1cccc(NC(=O)NCCN2CCCCC2)c1	1.1	1	3787	-59	4	6	4
O=C(CSc1ncnc2sc3c(c12)CCC3)NCC1CCCO1 (stereo not given)	3.5	-31	5559	-23	4	9	2
Cc1ccc(S(=O)(=O)N2CCN(C(=O)COC(=O)COc3ccc(Cl)cc3C)CC2)c(C)c1	4.5	nt	?	-2	11	2	0
CC1[C@H]2Cc3ccc(O)cc3[C@]1(C)CCN2CCc1ccccc1 (stereo not given in full)	1.3	nt	5524	-1	nt	nt	11
CC(NC(=O)COC(=O)c1ccc(CO)cc1)C1CC2CCC1C2 (stereo not given)	2.8	nt	4037	-14	4	3	4
O=C(NC1CCN(C(=S)Nc2ccc(F)cc2)CC1)c1ccco1	0.4	-6	2998	-1	1	-1	-4
c1ccc(CN2CCN(c3ncnc4c3[nH]c3ccccc34)CC2)cc1	5.0	5	3519	-1	-19	-17	29
Nc1nc(-c2ccc(Br)cc2)cc(C(F)(F)F)n1	15	11	4706	2	nt	nt	-2
Cc1c[n+]([O-])cc(C)c1Oc1ccccc1	6.2	4	3942	-8	11	11	-2
Cc1cc(C)cc(N(CCC#N)C(=O)COC(=O)c2ccccc2SCC(=O)N2CCCC2)c1	1.2	5	7100	-16	8	-3	1
O=c1c(-c2ccco2)[n+]([O-])c2ccccc2n1OCc1c(F)cccc1F	-2.3	9	2971	-8	2	1	-9
O=C1CC2(CCCC2)Oc2ccccc21	3.9	1	4358	-12	8	10	2
Cc1ccc(S(=O)(=O)CCC(=O)OCc2ccc(S(=O)(=O)C(C)C)cc2)cc1	0.8	-1	4584	-16	17	5	6
Fc1ccc(-c2csc3[n+]2CCS3)cc1	2.5	-15	3307	-3	8	3	9
Cn1c(=O)[nH]c(=O)c2c1nc1n2CC(COc2ccc3ccccc3c2)O1 (stereo not given)	-1.2	2	4205	-11	9	-2	3
CC(C)c1ccc(OC(=O)c2ccc3c(=O)n4c(nc3c2)CCC4)cc1	-1.6	-1	nt	-13	2	0	-7
COc1ccc(-c2cc(C3CCN(c4ccc(C(C)=O)cc4[N+](=O)[O-])CC3)[nH]n2)cc1	-3.9	1	5963	-1	2	2	16
CC1C=CC(C)C(C(=O)O)C1C(=O)O (stereo not given)	7.0	5	15141	-14	12	-1	11
CCn1nnc2c(=O)oc3ccccc3c21	-0.8	0	4005	-5	4	-5	1
Cc1ccc2nc(-c3ccc(NC(=O)Cc4cccs4)cc3)[nH]c2c1	-2.3	3	7256	-156	1	-5	0
CN(C)N1C(N)=C(C#N)C(c2cccnc2)C2=C1CCCC2=O (stereo not given)	7.8	1	8871	-3	4	7	2
CC(OC(=O)c1nccnc1N)C(=O)Nc1ccc(S(=O)(=O)N2CCCC2)cc1 (stereo not given)	2.3	-9	?	-1	16	0	10
N#Cc1ccc(OCC(=O)N2CCN(S(=O)(=O)c3cccc(Cl)c3)CC2)cc1	4.7	nt	3031	-26	-2	-5	5
COc1cc(C(=O)CSc2nnc(-c3ccc(O)cc3)n2CC2CCCO2)ccc1NC(C)=O (stereo not given)	2.3	4	12819	-11	3	9	-1
Cc1nnc(C)n1/N=C/c1ccc(C(=O)O)cc1	nt	0	22576*	-29	nt	nt	nt
O=C(Nc1cccc(-c2cc3ccccc3oc2=O)c1)c1ccc(Br)o1	9.3	-3	2609	-8	nt	nt	-9
O=C(CCN1C(=O)[C@H]2CC=CC[C@H]2C1=O)NCc1nc(-c2ccccc2)no1	-4.0	-3	4421	-9	0	-1	0
CCOC(=O)c1sc(NC(=O)CN2CCCC2)c(C(=O)OCC)c1C	2.5	8	2478	-25	nt	nt	5
O=C(Cc1ccccc1F)Nc1nc(-c2cccs2)cs1	-13	5	2998	-18	nt	nt	11
O=C(NCc1ccccc1)Nc1cccn(Cc2ccc(Cl)cc2)c1=O	0.4	0	3326	-10	13	13	9
O=C(Nc1nccs1)c1ccc(-c2ccc([N+](=O)[O-])cc2)o1	3.6	0	4575	-62	2	0	-3
CSc1cccc(NC(=O)C2C3C=CC4(O3)C2C(=O)N(CCCN2CCOCC2)C4C(=O)NC2CCCCC2)c1 (stereo not given)	1.8	4	4027	-16	-1	-4	1
CCOc1ccc(C=NNC(=O)CC(=O)NCCc2ccccc2)cc1	4.5	nt	nt	nt	-4	6	11
O=[N+]([O-])c1ccc(Cc2ccccn2)c([N+](=O)[O-])c1	1.9	-3	3969	-29	-4	2	6
C[C@H]1CN=C(Nc2ccccc2)N1CCC1CCCC1	nt	-4	4043	-19	nt	nt	nt
CC1CCCN(CCOc2cccc(Oc3ccccc3)c2)C1 (stereo not given)	2.4	-5	2994	-49	3	19	21
O=C(NCc1ccc(F)cc1Cl)C1CC(=O)N(C2CCCCCCC2)C1 (stereo not given)	-1.4	5	5445	-22	-1	-7	0
COc1ccc(-c2cc(C3CC3)nc(SCC(=O)c3cccs3)c2C#N)cc1	2.9	5	2582	-5	9	7	3
CC1Oc2ccccc2C=C1/C=N/NC(=O)[C@@H](C)NC(=O)OC(C)(C)C (stereo not given in full)	nt	-11	6205	-35	nt	nt	nt
Cc1ccc2occ(/C=C/C(=O)O)c(=O)c2c1	0.4	-4	4675	-17	nt	nt	-1
Cn1ncc(C#N)c1N=CN1CCCCCC1	6.4	nt	nt	nt	4	17	-2
COc1ccc(S(=O)(=O)N2CCCCCC2)cc1N(C)S(=O)(=O)c1ccc(Cl)cc1	7.0	-1	5279	7	0	0	-14
CCOc1ccc(S(=O)(=O)NCCc2ccccn2)cc1	-1.4	nt	3753	-14	12	10	2
O=C(CSCc1cccc(CSCC(=O)Nc2ccc3ccccc3c2)n1)Nc1ccc2ccccc2c1	-22	-6	3093	0	-3	13	-21
O=C(N/N=C/C(Cl)=C\c1ccccc1)c1cccs1	nt	-12	3572	-83	nt	nt	nt
CC(C)(C)NC(=O)COc1ccc(CNc2ccc3[nH]c(=O)[nH]c3c2)cc1	2.2	0	22627*	-5	2	4	-2
Cc1ncoc1C(=O)NCc1ccccc1Cl	-1.9	-11	10715	-34	-15	-1	-4
COc1cccc(CC2(CO)CCCN(Cc3ccc4c(c3)OCCO4)C2)c1 (stereo not given)	0.2	3	5477	-39	3	-1	4
CN(Cc1ccc(C(C)(C)C)cc1)C(=O)C1CCN(C(=O)Nc2ccccc2)CC1	0.3	-1	?	-18	6	3	-2
Cc1nn(C)c(Cl)c1CN1CCCC(C(=O)Nc2cccc(-n3cccn3)c2)C1 (stereo not given)	-1.1	8	4421	-26	13	-2	12
COc1ccccc1NC(=O)CC1S/C(=N/N=C(\C)C2CCCCC2)NC1=O (stereo not given)	nt	-10	4273	-29	nt	nt	nt
O=C(c1cc([N+](=O)[O-])ccc1N1CCCC1)N1CCCC1	1.6	7	4600	-32	12	-2	5
O=C(C1=C(O)C(=O)N(Cc2ccco2)C1c1cccc([N+](=O)[O-])c1)c1ccco1 (stereo not given)	2.0	1	4820	-31	1	-6	10
N=c1c2c(-c3ccccc3)c(-c3ccccc3)oc2ncn1CCN1CCOCC1	6.9	-1	10745	-6	13	13	-4
CCCC1CC(C(=O)NC(C(C)O)C2OC(SC)C(O)C(O)C2O)N(C)C1 (stereo not given)	100*	nt	nt	nt	nt	nt	99*
Cc1c(Cl)cccc1NC(=O)CSc1nc2c(c(=O)[nH]1)CCCC2	4.3	-2	nt	nt	6	4	-1
COc1ccc(CN(Cc2ccccn2)C(=O)CN2C(=O)C(C)Oc3ccccc32)cc1 (stereo not given)	2.0	-12	22997*	-13	4	10	3
CC(C)CN1CCN(Cc2c[nH]c3ccccc23)CC1CCO (stereo not given)	2.9	3	4534	-15	-3	-1	-3

(continued)
SMILES	RN4220 kill	BJeLR viability	Bead autofluor	PrP 5UTR inh	Mtb hypoxia rep	Mtb hypoxia rep growth	ugtP null kill
COc1ccc(S(=O)(=O)N2CCC(=O)N2)cc1	2.0	4	4184	-21	10	6	3
COc1ccc(NC(=O)CSc2ncnc3sc(C)cc23)cc1	3.1	-4	3624	-6	0	0	5
Cc1ccc(S(=O)(=O)N2CCCC2c2cccnc2)cc1 (stereo not given)	5.9	6	3369	-11	-1	9	2
O=S(=O)(Cc1cc(-c2ccccc2)no1)c1ccccc1	10	-4	3297	51*	14	13	5
Oc1[nH]c2ccccc2c1C=NN1CCCCC1	4.0	nt	nt	nt	16	1	4
O=C(O)CSCC(=O)Nc1ccccn1	2.7	3	5878	-3	-1	-9	3
Cc1ccccc1SCC(=O)Nc1ccc(N2CCOCC2)cc1	18	0	3477	-69	6	8	1
COc1ccc(C(NC(=O)/C=C/c2ccco2)c2ccc(OC)cc2)cc1	7.5	-7	2512	-35	-2	-9	12
COc1cccc(-c2noc(Cn3nc(C)c([N+](=O)[O-])c3C)n2)c1	3.9	-2	3388	-27	nt	nt	-4
CCn1c(-c2cccnc2Cl)nc2cc(Cl)c(Cl)cc21	0.9	-11	23561*	-29	2	9	-22
Cc1ccc(NC(=O)CN(C)C(=O)/C=C/c2cccc(F)c2)cc1	2.7	-18	4254	4	-2	-4	7
COc1ccc(NS(=O)(=O)c2cccc(NC(=O)c3cnccn3)c2)cc1Br	nt	-1	4462	-17	nt	nt	nt
COc1ccc(CCNC(=O)c2cc(=O)n(C)c(=O)n2C)cc1OC	2.4	3	4105	-8	6	5	6
Cc1cc(NC(=O)c2ccco2)no1	4.5	-6	6434	-24	3	6	-3
CC(C)NC(=O)c1sc(=S)n2c1[nH]c(=O)c1ccc(C(=O)NCCc3ccc(Cl)cc3)cc12	11	-8	4779	-1	5	7	12
COc1cccc(/C=N/Nc2ncnc3scc(-c4ccccc4)c23)c1OC	nt	-14	21674*	3	nt	nt	nt
CCN(CC)S(=O)(=O)c1cc(NC(=O)C(C)OC(=O)c2[nH]c(C)c(C(C)=O)c2C)ccc1C (stereo not given)	6.6	-7	2624	-3	7	-3	0
Cc1ccc(SCC(=O)N2c3ccccc3Sc3ccccc32)cc1	3.2	-3	2869	-16	9	1	52
N#CNC(=Nc1cccc(Cl)c1)Oc1ccccc1	2.4	-2	5631	-21	-7	9	-11
CC(=O)C(C)Oc1ccc(Cc2ncc(C(F)(F)F)cc2Cl)cc1 (stereo not given)	0.8	1	4353	-9	8	17	5

Compound profiles, from the list above:
Entry for c1ccc(CN2CCN(c3ncnc4c3[nH]c3ccccc34)CC2)cc1 : RN4220 kill = 5.0; BJeLR viability = 5; Bead autofluor = 3519; PrP 5UTR inh = -1; Mtb hypoxia rep = -19; Mtb hypoxia rep growth = -17; ugtP null kill = 29
Entry for COc1cccc(CC2(CO)CCCN(Cc3ccc4c(c3)OCCO4)C2)c1 (stereo not given) : RN4220 kill = 0.2; BJeLR viability = 3; Bead autofluor = 5477; PrP 5UTR inh = -39; Mtb hypoxia rep = 3; Mtb hypoxia rep growth = -1; ugtP null kill = 4
Entry for O=C(O)CSCC(=O)Nc1ccccn1 : RN4220 kill = 2.7; BJeLR viability = 3; Bead autofluor = 5878; PrP 5UTR inh = -3; Mtb hypoxia rep = -1; Mtb hypoxia rep growth = -9; ugtP null kill = 3

The results go on:
SMILES	RN4220 kill	BJeLR viability	Bead autofluor	PrP 5UTR inh	Mtb hypoxia rep	Mtb hypoxia rep growth	ugtP null kill
Cc1ccc(OCC(=O)NN2C(=O)c3ccccc3C2=O)c(C)c1	-1.7	2	3332	-12	-1	2	-12
CCCCC(=NO)c1c(C)[nH]c2ccccc12	-3.0	nt	nt	nt	3	-4	-4
COC(=O)[C@H](CCSC)NC(=O)N1CCN(c2cccc(C(F)(F)F)c2)CC1	-2.9	1	7907	-7	-2	-2	18
CN(C)S(=O)(=O)c1cccc(-c2nnc(-c3ccccc3)o2)c1	2.0	9	10966	-48	3	13	0
CN(C(=O)CSc1cc(Cl)ccc1Cl)C1CCS(=O)(=O)C1 (stereo not given)	-1.8	nt	2796	-2	2	2	-5
CCN(CC)CCCNC(=O)c1nn(-c2cccc(OC)c2)c(=O)c2ccccc12	1.4	-9	4673	-25	nt	nt	-4
O=C(Nc1ccccc1N1CCOCC1)c1cc(Cl)c2c(c1)OCO2	2.8	nt	2758	4	-8	0	-1
COc1ccc(Cl)cc1N/C(N)=N/c1nc(C)cc(C)n1	7.2	-3	2533	-19	14	6	3
COc1cccc(OC)c1C(=O)NNC(=O)c1ccccc1-n1cccc1	3.5	4	4378	3	-1	0	14

Bioassay records as filed in PubChem.
